Source: PubChem
LASV entry inh = qHTS for Inhibitors of binding or entry into cells for Lassa Virus. Lassa virus pseudotype entry inhibition, cell reporter; control for the full effect not named in the record. Potency, µM (highest dose often 37.9 µM), for inactives: top-dose activity change, negative = inhibition, usual class: inhibitors. hit rate 1.2% among 300,000; active means well fitted inhibition curve with a large enough effect; inconclusive means small, poorly fitted or top-dose-only effect, or effect the other way; inactive means flat fitted curve, though single readings scatter; tested in HEK293 cells; also: % is scaled to controls: 0 for no effect and ±100 for the full control effect; nearly all actives have a fitted effect of over 50% in size; luciferase read-out
RE007 growth inh = qHTS Assay for Inhibitors of the HIV-1 protein Vpr. Potency, µM (series often up to 92.2 µM), for the others: at the highest dose activity change, negative = less growth. S. pombe RE007 Vpr strain, BacTiter-Glo ATP luminescence, 24 h; control for the full effect not named in the record. hit rate 0.21% among 360,000; active = well fitted falling curve with a large enough effect; inconclusive = small, poorly fitted or top-dose-only effect; inactive = no such curve, though single readings can be large or run the other way;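 also: % is scaled to controls: 0 for no effect and ±100 for the full control effect; nearly all actives have a fitted effect of over 50% in size; the assay follows cell death caused by Vpr and the record does not say whether a fall means rescue or toxicity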
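Fission yeast strain RE007, carrying one chromosomally integrated HIV-1 vpr copy, was seeded at OD 0.01 in PMG+AL medium with 23 nL pinned compound. After 24 h at 30 °C and 99% humidity, viability was read by BacTiter-Glo luminescence.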
SARS PLP yeast = qHTS of Yeast-based Assay for SARS-CoV PLP | S. cerevisiae expressing SARS-CoV PLpro, growth rescue; control for the full effect not named in the record | Potency, µM (series often up to 32.9 µM), without a hit: top-dose activity, positive = growth rescue | hit rate 0.19% among 330,000 | AID 485353, 2010; also: 0% is about no effect; nearly all actives have a fitted effect of over 55% in size; growth read by luminescence after 48 h
NS1 inh = qHTS Assay for Inhibitors of Influenza NS1 Protein Function; S. cerevisiae slowed by influenza A NS1, growth recovery by OD600; Potency, µM (titrated, usually from 46.1 µM), without a hit: at the highest dose activity, positive = more growth; hit rate 0.4% among 270,000; also: actives are rising curves; nearly all actives have a fitted effect of over 50% in size
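OD600 was taken as the measure of yeast growth restored by compound in an NS1-expressing S. cerevisiae strain. Cells had been washed out of glucose medium and diluted 1:100 into galactose -URA medium, pH 6.0.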
StopGo reporter = High Throughput Screening for Foot and Mouth Disease Virus Antivirals; hit rate 1.2% among 410,000; Potency, µM (titrated, usually from 57.9 µM), for the others: top-dose signal change, negative = less light; AID 1159524, 2015; human cells with a luciferase reporter of 2A StopGo recoding; control for the full effect not named in the record; active = well fitted falling curve with a large enough effect; inconclusive = small, poorly fitted or top-dose-only effect; inactive = no such curve, though single readings can be large or run the other way; tested in HEK293T cells; also: % is scaled to controls: 0 for no effect and ±100 for the full control effect; nearly all actives have a fitted effect of over 45% in size; luciferase light after 4 h
Marburg entry inh = qHTS for inhibitors of binding or entry into cells for Marburg Virus; Potency, µM (top dose mostly 37.8 µM), inactives show top-dose activity change, negative = inhibition, actives largely listed as inhibitors; hit rate 1.8% among 300,000; AID 540276, 2011; Marburg virus pseudotyped entry inhibition, cell reporter; control for the full effect not named in the record; about a third of the inactives were read at about 46 µM; active = well fitted inhibition curve with a large enough effect; inconclusive = small, poorly fitted or top-dose-only effect, or effect the other way; inactive = flat fitted curve, though single readings scatter; tested in HEK293 cells; about a fifth of its hits are not listed in these tables; also: % is scaled to controls: 0 for no effect and ±100 for the full control effect; luciferase read-out
Cruzain inh Det = qHTS Assay for Promiscuous and Specific Inhibitors of Cruzain (with detergent); Cruzipain (Trypanosoma cruzi), P25779; purified cruzain, Z-FR-AMC fluorescence, 0.01% Triton; Potency, µM, without a hit: max response, negative = inhibition, most hits filed as inhibitors; hit rate 0.43% among 200,000; active = well fitted curve in the direction sought with a large enough effect; inconclusive = small, poorly fitted or top-dose-only effect, or another doubt; inactive = no such curve, though single readings can be large; an effect the other way counts as inactive or inconclusive;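 also: plate controls were neutral wells for no effect and buffer without enzyme for full effect; nearly all actives have a fitted effect of over 40% in size; top concentration of the series not given in the record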
Target sequence (P25779 123-467 limits assumed): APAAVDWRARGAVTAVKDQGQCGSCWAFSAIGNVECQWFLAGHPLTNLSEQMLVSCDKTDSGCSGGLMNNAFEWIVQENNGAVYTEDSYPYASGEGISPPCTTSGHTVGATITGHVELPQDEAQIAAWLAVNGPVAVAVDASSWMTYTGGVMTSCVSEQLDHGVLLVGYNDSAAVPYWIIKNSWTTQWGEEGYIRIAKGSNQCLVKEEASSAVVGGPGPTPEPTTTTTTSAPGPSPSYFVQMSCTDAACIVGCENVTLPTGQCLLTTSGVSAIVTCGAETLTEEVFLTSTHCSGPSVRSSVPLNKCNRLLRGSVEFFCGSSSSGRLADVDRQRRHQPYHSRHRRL
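Purified cruzain (1.5 nM final) was preincubated with compounds for 15 min at room temperature in 100 mM sodium acetate pH 5.5, 5 mM DTT, 0.01% Triton X-100. Reaction started with 2 uM Z-FR-AMC; AMC fluorescence change over 60 s gave activity.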
Cruzain inh noDet = qHTS Assay for Promiscuous and Specific Inhibitors of Cruzain (without detergent); Cruzipain (Trypanosoma cruzi), P25779; purified cruzain, Z-FR-AMC fluorescence, no detergent; Potency, µM, without a hit: max response, negative = inhibition, most hits filed as inhibitors; hit rate 2.3% among 200,000; active = well fitted curve in the direction sought with a large enough effect; inconclusive = small, poorly fitted or top-dose-only effect, or another doubt; inactive = no such curve, though single readings can be large; an effect the other way counts as inactive or inconclusive;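 also: plate controls were enzyme without inhibitor for no effect and buffer without enzyme for full effect; nearly all actives have a fitted effect of over 40% in size; top concentration of the series not given in the record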
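Detergent-free condition (0.00005% Triton X-100) in acetate buffer pH 5.5 with DTT. 1.5 nM enzyme and compound were pre-mixed 15 min, then 2 uM Z-FR-AMC substrate added; reaction progress from fluorescence change between first and third reads (60 s).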
The depositor's hits bear a star; ? = inconclusive; · = no result given; & = joins results of further samples; [ ] = remark or other dose. Unless noted, calls follow the shape of the dose curve; as a rule, active means well fitted rising curve with a large enough effect; inconclusive means small, poorly fitted or top-dose-only effect; inactive means no such curve, though single readings can be large or run the other way. Potency is read from the fitted curve at half-maximal effect.

SMILES	LASV entry inh	RE007 growth inh	SARS PLP yeast	NS1 inh	StopGo reporter	Marburg entry inh	Cruzain inh Det	Cruzain inh noDet
COc1cc(-c2cc(C(=O)Nc3ccc(O)cc3)c3ccccc3n2)cc(OC)c1OC	·	4.9%	0.7%	1.1%	?	·	·	·
Cc1ccc(/C(O)=C2/C(=O)C(=O)N(CCN3CCOCC3)C2c2cccs2)cc1 (configuration not stated)	-0.5%	16.2%	-1.8%	3.6%	20.8%	?	-3.1%	0.5%
CCOC(=O)c1cnc2c(ccc3ccccc32)c1Nc1ccc(C(C)=O)cc1	12.9%[46.1 µM]	·	·	·	?	?	-2.6%	1.2%
O=C(N/N=C/c1cccc([N+](=O)[O-])c1)c1cc2ccccc2o1	0.2%	5.4%	8.2%	0.3%	-3.7%	?	-17.3%	?
Cc1cc(NC(=O)CSc2nnc(-c3ccc(O)cc3)o2)no1	·	3.0%	-1.0%	-2.1%	-13.3%	·	·	·
Cc1ccc(C)c(NC(=O)C2CC(Cl)=CCC2C(=O)O)c1 (configuration not stated)	-2.6%	7.8%	0.1%	3.5%	24.4%	3.4%	-2.0%	2.9%
CCOC(=O)N1CCC(N2Cc3cccc(C(=O)Nc4ccccc4OC)c3C2=O)CC1	·	-6.0%	-1.8%	20.5%	-9.3%	·	·	·
CCN1C(=O)c2cccc3cccc1c23	17.3%	-1.7%	-2.7%	-48.2%	·	1.4%&1.4%	2.0%	-0.7%
Cc1nnc(SCC(=O)Nc2ccc(Cl)cn2)s1	-2.4%	10.3%	-3.3%	13.3%	-8.8%	5.1%	0.1%	2.9%
O=C(CSc1nnc(CN2CCOCC2)n1-c1ccc(Cl)cc1)Nc1cc(Cl)ccc1O	1.8%	-19.4%	·	-40.7%	-14.7%	-0.9%&6.5%	-2.4%	?
Cc1ccc2oc(C(=O)Nc3nnc(C)s3)c(C)c2c1	?	-24.7%	0.8%	-14.8%	21.5%	0.5%	2.8%	-23.5%
S=C1NC(c2ccccc2)=CC(c2ccccc2)N1 (configuration not stated)	-18.7%	2.8%	21.4%	6.7%	-9.2%	9.6%[46.1 µM]	·	·
CCn1cc(C(=O)NCCOC)c(=O)c2cc(S(=O)(=O)N3CCOCC3)ccc21	-0.5%[46.1 µM]	·	·	·	-7.4%	?	-5.0%	-2.3%
Cc1ccc(NC(=O)C(c2ccc(Cl)cc2Cl)N2CCCC2)cc1 (configuration not stated)	-25.2%	-1.0%	8.2%	-6.3%	-29.2%	-5.9%	-2.5%	2.2%
Cc1cc(C)cc(NC(=O)CSc2cc(C)[nH]c(=O)n2)c1	12.0%[46.1 µM]	·	·	·	-9.6%	·	-1.4%	-5.9%
CC(C)CNS(=O)(=O)c1ccc(CCC(=O)NC2CCCCC2)cc1	-1.7%	-6.5%	·	·	1.9%	-8.6%[46.1 µM]	·	·
CCOc1ccc(NC(=O)c2c(C)nn(Cc3ccccc3)c2Cl)cc1	3.3%	-0.7%	-22.0%	-10.1%	-3.8%	?	2.4%	-6.2%
O=C1O/C(=C/Br)CCC1c1cccc2ccccc12 (configuration not stated)	20.6µM*	·	·	-14.6%	·	10µM*	-15.9%	-9.5%
O=C(Nc1c(-c2ccc(F)cc2)nc2ccccn12)c1ccccc1F	-20.8%[46.1 µM]	·	·	·	-8.5%	?	-3.2%	-4.6%
Cc1cccc(NC(=O)CN2C(=O)N/C(=C/c3cc(C)n(-c4ccncc4)c3C)C2=O)c1	-25.3%	4.4%	21.9%	17.5%	-23.2%	-44.0%	-18.7%	-16.1%
COc1cccc(CN(CC2CCCO2)S(=O)(=O)c2ccc(S(=O)(=O)N(C)C)cc2)c1 (configuration not stated)	?	-0.4%	18.6%	-5.5%	-9.7%	-7.1%	3.5%	6.0%
COC(=O)[C@@H]1C[C@H]2CC[C@H](O)C[C@H]2N1Cc1ccc(N2CCN(C)CC2)cc1	·	1.3%	0.8%	3.4%	-10.3%	·	3.1%	-2.6%
Cc1ccc(-c2c(C)cc3oc(=O)cc(-c4ccccc4)c3c2C)cc1	·	4.8%	-3.7%	·	0.0%	·	2.9%	?
C=CCN1CCN(C(c2ccccc2)c2nnnn2CCC(C)C)CC1 (configuration not stated)	0.3%	-25.3%	-0.4%	5.2%	-27.9%	-13.0%	0.2%	10.6%
COc1cccc(CNC(=O)C2CCCN(c3nn4c(=O)cc(C)nc4s3)C2)c1 (configuration not stated)	-3.2%	-10.5%	3.7%	2.3%	15.2%	-0.4%	2.4%	-6.9%
CCOc1ccccc1Nc1nc(N)nc(CN2CCCCC2C)n1 (configuration not stated)	14.1%[46.1 µM]	3.3%	0.7%	0.0%	-9.8%	?	·	·
CCOc1cc(C2CC(=O)NC3=C2C(=O)C(C(=O)OC)C(C)C3)cc(Br)c1O (configuration not stated)	-4.2%	5.8%	-0.9%	1.8%	-12.8%	-2.1%&-2.1%	4.5%	8.5%
O=c1[nH]c(=O)c2nc3ccccc3nc2[nH]1	0.0%	·	-2.3%	-10.7%	-14.1%&8.2%	?	-3.6%	6.5%
Cc1cc(/C=N/NC(=O)c2c(Br)cnn2C)c(C)n1-c1cccc(Br)c1	?	21.5%	-16.9%	21.6%	?	?	-7.7%	4.2%
O=C(Nc1c2c(nn1-c1ccc([N+](=O)[O-])cc1)CS(=O)(=O)C2)C1CC1	·	11.0%	-2.9%	11.4%	-9.8%	·	·	·
Cc1ccc(CNc2ccc3c(c2)nc(C)n3C)cc1	?	-6.3%	4.3%	11.2%	-33.2%	?	·	·
COc1ccc(-c2[nH]c(-c3ccc(C(=O)O)cc3)nc2-c2ccccc2)cc1	9.6%	-3.9%	1.1%	?	-15.6%	8.6%	-25.9%	?
CN(C)C(=O)c1ccccc1-c1ccccc1	-2.3%	11.9%	-3.1%	14.6%	7.6%	10.1%	4.3%	-4.1%
CC(C)NC(=O)C1(c2ccccc2)CC1(Cl)Cl (configuration not stated)	1.1%	-3.9%	-14.4%	10.0%	-15.2%	18.1%	8.0%	5.3%
COc1cccc(CN(C)C(=O)c2sccc2-c2ccccc2)c1OC	-31.9%[46.1 µM]	-1.7%	-0.5%	-4.8%	-20.9%	1.0%[46.1 µM]	·	·
CCSc1nc2ccc(C)cc2cc1C#N	?	-1.0%	-0.4%	3.0%	13.9%	?	·	·
COc1ccc(NC(=S)NCCN2CCOCC2)cc1	·	-11.3%	-0.5%	4.5%	3.4%	·	·	·
COc1ccccc1/C=C/C1NC(=O)NC(C)=C1C(=O)OC(C)C (configuration not stated)	5.7%	-0.4%	6.0%	1.6%	3.2%	-11.2%	·	·
COCCN(C(=O)C(C)N1C(=O)c2ccccc2C1=O)c1c(N)n(CC(C)C)c(=O)[nH]c1=O (configuration not stated)	10.8%	-9.6%	·	·	-8.4%	?	·	·
O=C(Nc1cccnc1)C1(c2ccccc2)CCCC1	?	8.6%	0.3%	-17.9%	-16.5%	9.3%	10.5%	1.0%
CCOC(=O)C1=C(C)Nc2ccccc2N=C1NC(=O)Cc1ccc(OC)cc1	25.4%	2.5%	-9.3%	-1.1%	-5.3%	22.8%	-2.8%	-1.6%
Cc1ccccc1CNC(=O)c1ccc2ccccc2n1	?	-16.0%	-19.7%	-34.8%	17.3%	-10.4%[46.1 µM]	·	·
O=C(Nc1nncs1)c1ccc(F)c(S(=O)(=O)N2CCCCC2)c1	20.0%[46.1 µM]	9.7%	-5.3%	11.0%	-3.7%	17.7%[46.1 µM]	·	·
O=c1c(Cl)c(NCc2ccccc2Cl)cnn1C12CC3CC(CC(C3)C1)C2	-1.7%	3.1%	-26.6%	-1.6%	4.1%	?	-12.0%	-11.4%
COCCn1nnnc1C(c1cccs1)N1CCCC(C)C1 (configuration not stated)	20.1%[46.1 µM]	3.2%	-0.3%	1.8%	-1.9%	-2.6%[46.1 µM]	·	·
CCN(CC)S(=O)(=O)c1cccc(NC(=O)COC(=O)CCC(=O)c2ccc(F)cc2)c1	-0.3%	0.8%	3.2%	4.4%	9.2%	18.5%	-7.0%	4.4%
CCN(CC(=O)NCc1ccc(Cl)cc1)C(=O)c1ccc2cc(OC)ccc2c1	?	-6.9%	-0.5%	-11.2%	10.5%	?	·	·
Cc1sc(-n2cccc2)c(C(C)NC(=O)Nc2cccc(C(F)(F)F)c2)c1C (configuration not stated)	·	·	·	·	?	?	-7.5%	-9.2%
COc1ccc(-c2nc(CSCC(=O)NCCc3ccc(OC)c(OC)c3)c(C)o2)cc1	-18.3%[46.1 µM]	·	·	·	?	?	0.1%	?
O=C(NCC(c1cccnc1)N1CCOCC1)NC1CCCCC1 (configuration not stated)	6.3%[46.1 µM]	-6.7%	1.7%	·	-6.2%	-1.7%[46.1 µM]	·	·
CCn1c(SCc2nc3ccccc3[nH]2)nnc1-c1ccc(OC)cc1	-2.6%	2.6%	0.1%	-11.1%	?	-11.3%	2.1%	5.1%
CC(=O)/C=C(\C)NCCNc1c(F)c(F)c(CO)c(F)c1F	12.0%	5.5%	1.3%	12.8%	-24.6%	-3.8%&-3.8%[46.1 µM]	2.8%	-2.1%
COc1ccc(NC(=O)C(=O)N/N=C/c2cccnc2)c(OC)c1	-9.0%	-14.8%	3.2%	5.8%	-15.3%	-3.9%	-2.0%	-13.7%
COc1ccc(NC(=O)CCCn2nc(C)c3c(C)n(-c4ccccc4)nc3c2=O)cc1OC	·	-0.5%	-0.9%	1.4%	-18.0%	·	·	·
O=S(=O)(NC1CCN(Cc2ccccc2)CC1)c1ccc2ccccc2c1	-9.5%	9.1%	2.8%	·	12.0%	?	·	·
